Mtb hypoxia inh: reduces hypoxia-regulated biosensor signal in M. tuberculosis; M. tuberculosis hypoxia-regulated fluorescent reporter, fluorescence; fluorescence inhibition, % (concentration not given with the values); hit rate 0.1% among 300,000;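 active = 35 to 45% if threefold the growth effect, above 45% if 1.5-fold the growth effect; inactive = the rest, general growth blockers included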;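 note: wells of about 50 µL received 100 nL stock; 0% = vehicle wells and 100% = reference inhibitor wells; whole bacteria with a GFP reporter of the hypoxia response; strong numbers were not always called active; many hits fall short of the cut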
Autofluor counter: counter-screen for toxin protease inhibitors: compound fluorescence; fluorescence intensity (test concentration not listed); hit rate 3.1% among 360,000; compound autofluorescence counterscreen, microsphere flow cytometry; stronger effect = higher value; AID 624483;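 active = at least 3 SD above the mean of all compounds, about 16000 in these data; inconclusive = too few beads counted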;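 note: 100 nL of 1 mM stock went into each well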
Sa RN4220 lethal: S. aureus RN4220 growth inhibition; OD600, 16 h; inhibition, % (concentration not given with the values); hit rate 0.33% among 330,000;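 active = z-score of -3 or lower and OD600 up to 0.18 on both plates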;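 note: plate controls were untreated cells for no effect and reference antibiotic for full effect; stock transfer was 100 nL into about 80 µL; one replicate is shown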
BJeLR lethal: BJeLR cell viability loss | BJeLR (HRASV12) viability, CellTiter-Glo ATP luminescence, 48 h; reference of the scale not given here | AID 1554 | inhibition, % (test concentration not listed) | hit rate 0.17% among 300,000;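 active = replicate mean above 50%; inconclusive = above 50% but judged a plate artefact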;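 note: 50 nL library stock added to about 25 µL; numbers are from one replicate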
ugtP null kill: compounds lethal to S. aureus RN4220 ugtP deletion mutant; OD600 growth, 16 h; some inactives read as strong as hits; growth inhibition, % (concentration not given with the values); hit rate 0.54% among 330,000;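 active = z-score under -3 and OD600 up to 0.15 on both plates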;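 note: plate controls were untreated wells for no effect and antibiotic for full effect; wells of about 80 µL received 100 nL stock; the first replicate is given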
PrP 5UTR inh: inhibition of PrP 5' UTR reporter expression | cell-based PrP 5' UTR mRNA reporter, plate reader | inhibition, % (no concentration beside the values) | hit rate 0.35% among 340,000 | AID 488862;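 active = every replicate at 50% or more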;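 note: 0 = median of the neutral control wells; tested in H4 reporter cells; numbers are from one replicate; inactives centre near -14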
Mtb hypoxia inh growth: also measured in Mtb hypoxia inh; calls as there; growth inhibition, %; measured here: M. tuberculosis growth (absorbance);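 0% = vehicle and 100% = reference antibiotic; read after six days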
The depositor's hits bear a star; ? = inconclusive; . = not tested or not shown.

SMILES	Mtb hypoxia inh	Mtb hypoxia inh growth	Autofluor counter	Sa RN4220 lethal	BJeLR lethal	ugtP null kill	PrP 5UTR inh
Brc1cccc(CNCc2ccncc2)c1	4	8	3752	-0.1	5	1	1
Cc1ccc(C2CCN(C(=S)NC(C)C)C2)cc1 (configuration not stated)	13	10	3951	3.0	-5	12	-15
Cc1ccc(S(=O)(=O)N2CCN(S(=O)(=O)c3ccccc3)C2)cc1	1	6	21096*	2.2	-6	-2	1
Cc1cccc(NC(=S)NC2CCCC2)c1	13	6	2764	5.5	-12	1	-10
C=CCn1c(SCC(=O)N2CC(=O)Nc3ccccc32)nc2scc(-c3ccccc3)c2c1=O	.	.	4982	-2.7	-4	-1	-1
CC(=O)NS(=O)(=O)c1ccc(NC(=O)c2cccc3ccccc23)cc1	14	3	3131	2.2	0	9	-13
COC(=O)C1=C(c2cc3ccccc3o2)CC2CCC1N2C(=O)NCc1cccc2ccccc12 (configuration not stated)	-2	0	.	-3.0	.	-7	.
CC(CN1CCCC1)OC(=O)COc1ccccc1 (configuration not stated)	.	.	3442	12	0	13	-18
O=Cc1c(Nc2ccccc2Cl)nc2ccccn2c1=O	25	13	3571	4.9	-19	4	5
CCOC(=O)C(NC(=O)NCc1ccc(OC)cc1)(OCC)C(F)(F)F (configuration not stated)	.	.	2499	7.2	12	-3	-19
CC(C)CC(=O)Nc1ccc(-c2cn3ccsc3n2)cc1	.	.	2940	-7.3	.	-17	-92
CCCCC(=O)Nc1ccc(C(=O)NNC(=S)NC(=O)c2cccs2)cc1	10	6	8143	22	12	14	-43
COc1cc(/C=N/N2CCOCC2)ccc1OCc1ccccc1	.	.	5046	.	-10	.	-47
CC(C)[C@H](NC(=O)c1ccccc1)C(=O)OCC(=O)NCCc1ccc(F)cc1	.	.	10136	.	-5	.	-7
O=C(CSc1nc2ccccc2n1CC(=O)N1CCOCC1)N1CCCC1	8	-6	10175	0.5	-8	8	-24
Cc1c(C(=O)Nc2ccccc2)sc2nc[nH]c(=O)c12	-12	-9	2482	5.8	-7	-4	-28
CN1C(=O)N(C)C(NC(=O)Nc2ccccc2)C1NC(=O)Nc1ccccc1 (configuration not stated)	.	.	2770	-1.0	4	-1	6
O=C1C(=C2CCc3ccccc32)Cc2ccccc21	12	4	3659	2.3	.	-11	.
CCc1ccc(N2CC(C(=O)Nc3ccc(S(=O)(=O)N4CCOCC4)cc3)CC2=O)cc1 (configuration not stated)	4	-5	?	-1.9	-4	3	-14
Cc1ccc(S(=O)(=O)CCC(=O)Nc2nc(-c3cccnc3)cs2)cc1	2	6	4213	2.5	4	-3	-8
CCOc1ccccc1C1NC(=O)NC(C)=C1C(=O)OCc1ccco1 (configuration not stated)	17	-7	9769	4.5	12	-3	10
CCOC(=O)c1nnn(CC(=O)NC(=O)Nc2cccc(CC)c2)c1C(=O)OCC	2	5	6091	2.4	-17	9	-24
CC1(C)CC(NC(=O)C2CCC(=O)N(Cc3ccccc3F)C2)CC(C)(C)C1 (configuration not stated)	2	-2	5155	-1.6	-10	-2	-48
C#CCOC(=O)c1cc(Cl)c(=O)n(Cc2ccc(Cl)cc2Cl)c1	-3	11	3992	2.7	-9	15	-12
Brc1c(CSc2nncn2-c2ccccc2)nc2sccn12	1	3	19506*	4.1	-11	6	-44
CCCC(=O)Nc1ccc(C(=O)NNC(=S)NC(=O)c2cccs2)cc1	4	-2	6594	16	2	11	-23
Cc1c(C(=O)Nc2ccncc2)oc2ccccc12	3	10	5119	2.3	9	-9	-44
CCn1nc(C)c(NC(=O)/C=C/c2ccc(OC)c(COc3ccc(Br)cc3)c2)c1C	-1	3	24144*	-5.0	-2	-8	1
CCN(CC(=O)Nc1ccccc1OC)C(=O)c1ccccc1Sc1ccccc1C#N	8	2	5246	6.0	.	-2	.
CN(CC(=O)Nc1ccccc1C(F)(F)F)C(=O)c1cc([N+](=O)[O-])ccc1N1CCOCC1	12	8	5943	4.4	0	4	-6
CC(C)OC(=O)/C(C#N)=C/c1ccc(-c2ccc(SC(F)F)cc2)o1	.	.	2472	.	-7	.	-13
CCC(C)NC(=O)C(NS(=O)(=O)c1cccc2nsnc12)c1ccccc1 (configuration not stated)	-1	1	4564	4.1	0	1	1
O=C(COc1cccc(Br)c1)N/N=C1\CCCc2ccccc21	.	.	4767	.	-1	.	-13
O=C(O)CN1C(=O)SC(Nc2ccccc2C(=O)O)C1=O (configuration not stated)	15	13	3371	1.0	-5	3	-25
N#Cc1c(SCC(N)=O)nc2c(c1-c1ccc(O)cc1)CCCC2	-1	0	12203	3.4	-5	13	6
O=S(=O)(N/N=C\c1cn(-c2ccccc2)nc1-c1ccccc1)c1ccccc1	.	.	9552	.	3	.	-33
Cc1cc(CC(=O)O)c2oc(-c3ccoc3)cc(=O)c2c1	7	-8	.	5.1	4	13	.
CC(NC(=O)OCc1ccccc1)C(=O)OCN1C(=O)c2ccccc2C1=O (configuration not stated)	.	.	3584	-5.2	0	-6	1
COc1ccc(S(=O)(=O)N2CCNCC2)cc1	.	.	3893	.	-2	.	-21
COCCCn1c(=O)c2sccc2n2c(CCCC(=O)NCC3CCCO3)nnc12 (configuration not stated)	17	7	5434	4.1	1	6	-18
Cc1ccccc1C1c2[nH]c3ccccc3c2C[C@H]2C(=O)N(C3CC3)CC(=O)N12 (some centres not stated)	-4	3	3756	-1.8	-4	8	-10
COc1ccc(CN2CCN(C(=O)CC(C)C)CC2)c2ccccc12	4	8	4589	2.6	7	-1	11
CCOC(=O)c1[nH]c(C)c(/C=N/O)c1C	.	.	2218	.	-6	.	-17
COc1ccc(-c2[nH]ncc2/C=C(\C#N)C(=O)NC2CC2)cc1	.	.	4410	3.5	-3	-2	-3
COc1ccc(Cn2nnnc2C(c2cccs2)N2CCSCC2)cc1 (configuration not stated)	1	-3	11469	6.5	18	8	-7
O=C(OCc1ccccc1F)c1cc([N+](=O)[O-])ccc1N1CCOCC1	.	.	?	.	-7	.	14
Cc1ccc(CNc2cnccn2)s1	12	-2	4112	0.2	7	0	-16
C=CCn1c(=S)[nH]c2scc(-c3ccco3)c2c1=O	-4	0	.	52	.	54	-23
CSC1=N/C(=C\c2cccnc2)C(=O)N1c1ccccc1	7	3	2512	6.3	7	6	-20
Cc1ccc(OC(C)C(=O)N(C)c2ccccc2)c([N+](=O)[O-])n1 (configuration not stated)	5	0	8670	5.3	.	3	3
Next part.
SMILES	Mtb hypoxia inh	Mtb hypoxia inh growth	Autofluor counter	Sa RN4220 lethal	BJeLR lethal	ugtP null kill	PrP 5UTR inh
Cc1ccc(C2CC2/C(=N/O)c2ccc(F)cc2)cc1 (configuration not stated)	.	.	3730	.	-1	.	-30
Cc1ccccc1-n1c(C)nnc1SCC(=O)N1CCc2ccccc2C1	11	10	7122	2.1	-26	5	-7
COP(=O)(C=Cc1ccccc1)C(O)c1ccc(F)cc1 (configuration not stated)	-6	2	.	-0.7	.	-4	.
COc1ccc(-n2c(SCC(=O)O)nnc2-c2ccc(NC(=O)c3ccccc3)cc2)cc1	2	4	5721	-0.8	3	-3	-15
CCN1CCN(c2cc(C)c3cc(NC(=S)N4CCN(c5ccccc5F)CC4)ccc3n2)CC1	-4	0	5119	-0.6	30	-5	-25
Cc1ccc(C(=O)N/C(=C\c2ccc(-c3ccccc3[N+](=O)[O-])o2)C(=O)NCCCN2CCOCC2)cc1	5	9	5886	7.0	-2	4	-46
CCNC(=O)c1ccccc1-c1nc(-c2ccccc2Cl)no1	15	10	4055	0.7	8	6	-7
Cn1nnnc1SCc1cn2cccnc2n1	11	16	3508	-9.5	2	-5	-14
N#CCC(=O)NCCCOC(=O)Nc1ccc(Cl)c(Cl)c1	13	6	6114	-6.2	12	-16	-13
CC1CCCN(C(=O)CSCC(=O)N=c2sc3ccccc3n2C)C1 (configuration not stated)	.	.	4213	3.7	-1	-6	-12
Cc1cc(Oc2ccccc2F)nc(NCc2ccccc2)n1	0	8	2344	6.0	0	2	12
Cc1ccc(C(=O)NCC(=O)Nc2ccccc2C(F)(F)F)cc1	3	-2	2678	-1.9	2	-7	-5
O=C(O)C(Cc1ccccc1)Nc1ccc([N+](=O)[O-])cc1[N+](=O)[O-] (configuration not stated)	.	.	6237	.	3	.	-40
CCc1ccc(NC(=O)CSc2nnc(-c3cccs3)n2CC)cc1	.	.	2804	5.6	1	19	15
CCCN1C(=O)/C(=C/c2c(N3CCNC(=O)C3CC(=O)OCC)nc3c(C)cccn3c2=O)SC1=S (configuration not stated)	-3	-2	.	15	3	3	-7
Cc1ccccc1OCC(=O)N1CCN(C(=O)COc2ccccc2C)CC1	7	1	5241	2.0	-5	14	-18
C[C@H](NC(=O)c1ccccc1)C(=O)OCC(=O)c1c[nH]c2ccccc12	-3	-9	3222	3.1	.	5	-16
O=C(CSc1ccc(-c2nc3ccccc3[nH]2)cn1)Nc1ccc(S(=O)(=O)NC2CC2)cc1	4	3	10210	27	4	2	-1
CCOc1ccc(NC(=O)CCS(=O)(=O)c2ccc3c(c2)CCCN3C(C)=O)cc1	.	.	3591	-1.7	12	9	-3
Cc1c(Cl)cnc(NC(=O)COC(=O)Cc2coc3ccc4ccccc4c23)c1Cl	15	8	9018	17	5	10	-37
O=S(=O)(N=C(c1ccccc1)N1CCOCC1)c1ccc(F)cc1F	-2	3	.	2.7	.	4	.
CCCCn1c(N)c(N(CCOC)C(=O)c2ccc(Cl)c(S(=O)(=O)N3CCCCC3)c2)c(=O)[nH]c1=O	14	4	6462	-0.2	-7	1	-15
O=C(O)c1ccc(/C=N/NC(=O)c2cc3c(ccc4ccccc43)o2)cc1	.	.	5417	.	19	.	-16
COCc1cc(C=NNC(=O)Cc2ccc(OC)cc2)ccc1OC	-3	0	.	-1.8	.	0	.
CCC1Oc2ccccc2N(CC(=O)NC2CC2)C1=O (configuration not stated)	-5	7	3613	-1.4	4	3	-17
CCOc1ccc(NC(=O)c2ccc(N)cc2)cc1	.	.	6328	2.7	2	0	5
Cc1c(C(=O)O)cccc1-c1ccc(/C=N/Nc2ccc(Br)cc2)o1	.	.	2131	.	4	.	-31
O=C(COc1ccccc1[N+](=O)[O-])NCc1cccnc1	6	6	2555	2.5	-16	1	-25
COc1ccc(CNC(=O)C2COc3ccccc3O2)c(OC)c1 (configuration not stated)	-3	4	8062	-1.4	-18	2	-22
Cn1c(SCc2nc3ccccc3[nH]2)nnc1-c1cccs1	4	0	23403*	2.4	-10	9	-15
NC(=O)C1CC2(CC(c3cccc(NC(=O)COc4ccc(Cl)cc4)c3)=NO2)CN1C(=O)Cc1ccc([N+](=O)[O-])cc1 (configuration not stated)	15	8	.	-1.8	.	-20	.
COc1ccc(Cl)cc1NC(=O)c1cnccn1	13	5	3083	1.8	0	9	17
CCc1nc(SCC(=O)NNC(=O)c2ccc(C)cc2)c2ccccc2n1	10	7	3548	3.8	-9	19	-8
CCOC(=O)C1CCCN(C(=O)C2CC(=O)N(c3ccc(C)cc3)C2)C1 (configuration not stated)	17	3	11533	3.2	-1	6	-48
COc1ccc(/C=C/C(=O)OC(C)CN2CCCCC2)cc1 (configuration not stated)	0	-1	4198	5.1	-10	7	-29
Nc1nnc(SCC(=O)OCC(=O)Nc2ccc(Br)cc2)s1	8	-3	9714	4.1	-2	5	-18

In the list so far, these contain a Cl atom.
SMILES	Mtb hypoxia inh	Mtb hypoxia inh growth	Autofluor counter	Sa RN4220 lethal	BJeLR lethal	ugtP null kill	PrP 5UTR inh
O=Cc1c(Nc2ccccc2Cl)nc2ccccn2c1=O	25	13	3571	4.9	-19	4	5
C#CCOC(=O)c1cc(Cl)c(=O)n(Cc2ccc(Cl)cc2Cl)c1	-3	11	3992	2.7	-9	15	-12
CCNC(=O)c1ccccc1-c1nc(-c2ccccc2Cl)no1	15	10	4055	0.7	8	6	-7
N#CCC(=O)NCCCOC(=O)Nc1ccc(Cl)c(Cl)c1	13	6	6114	-6.2	12	-16	-13
Cc1c(Cl)cnc(NC(=O)COC(=O)Cc2coc3ccc4ccccc4c23)c1Cl	15	8	9018	17	5	10	-37
CCCCn1c(N)c(N(CCOC)C(=O)c2ccc(Cl)c(S(=O)(=O)N3CCCCC3)c2)c(=O)[nH]c1=O	14	4	6462	-0.2	-7	1	-15
NC(=O)C1CC2(CC(c3cccc(NC(=O)COc4ccc(Cl)cc4)c3)=NO2)CN1C(=O)Cc1ccc([N+](=O)[O-])cc1 (configuration not stated)	15	8	.	-1.8	.	-20	.
COc1ccc(Cl)cc1NC(=O)c1cnccn1	13	5	3083	1.8	0	9	17

High-throughput results as filed in PubChem.
